KCNQ2 inh: KCNQ2 potassium channel inhibitors, primary screen, cell-based, CHO-K1, FluxOR thallium flux, B-score (AID 2156) | B-score at 10 µM | Potassium voltage-gated channel subfamily KQT member 2 (Rattus norvegicus), O88943 | 20 min; stronger effect = lower value; only compounds with negative scores are shown here; some inactives read as strong as hits | 310,000 tested, 1.1% active;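 active = fluorescence ratio B-score at most minus 3 library SDs, with starting brightness B-score within 2 library SDs, cut at about -5.5 in these data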
Target sequence (O88943 whole entry, looked up): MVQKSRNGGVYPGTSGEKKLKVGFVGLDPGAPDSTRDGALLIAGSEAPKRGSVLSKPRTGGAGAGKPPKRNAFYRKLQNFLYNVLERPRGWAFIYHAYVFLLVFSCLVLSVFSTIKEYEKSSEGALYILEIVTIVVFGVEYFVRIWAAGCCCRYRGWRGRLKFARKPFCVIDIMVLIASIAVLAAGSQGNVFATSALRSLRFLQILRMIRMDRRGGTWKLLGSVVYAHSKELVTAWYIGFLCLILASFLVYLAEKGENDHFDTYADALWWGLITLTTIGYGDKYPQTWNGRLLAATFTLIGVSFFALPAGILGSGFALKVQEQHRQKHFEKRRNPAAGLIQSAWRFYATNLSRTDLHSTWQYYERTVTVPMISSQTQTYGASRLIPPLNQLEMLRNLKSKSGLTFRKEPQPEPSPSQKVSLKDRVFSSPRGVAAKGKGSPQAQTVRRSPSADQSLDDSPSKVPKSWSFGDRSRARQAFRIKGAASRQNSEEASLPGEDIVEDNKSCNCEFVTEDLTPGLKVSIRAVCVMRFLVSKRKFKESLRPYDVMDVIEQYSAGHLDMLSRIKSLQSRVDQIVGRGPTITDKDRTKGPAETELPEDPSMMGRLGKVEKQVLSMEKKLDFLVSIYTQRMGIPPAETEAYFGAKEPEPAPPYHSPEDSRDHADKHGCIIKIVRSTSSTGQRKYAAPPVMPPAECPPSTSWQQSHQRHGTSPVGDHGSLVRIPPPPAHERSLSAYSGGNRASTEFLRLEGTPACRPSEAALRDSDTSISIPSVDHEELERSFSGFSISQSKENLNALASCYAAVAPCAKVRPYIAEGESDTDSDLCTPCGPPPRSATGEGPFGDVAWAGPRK
KCNQ2 inh baseline: recorded beside KCNQ2 inh, whose call it bears; B-score; measured here: initial fluorescence intensity artifact check;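 brightness before thallium and not channel activity; 0 = typical well and far values either way flag optical interference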
The depositor's hits bear a star; i = inactive. Not all compounds are listed; rates above refer to the full screens.

SMILES	KCNQ2 inh	KCNQ2 inh baseline
CC(C)Cc1cc(C(=O)N2CCCC(CCC(=O)N(C)CCc3ccccn3)C2)no1 (stereo not given)	i	1
O=C(Nc1ccccc1)NC1CCN(Cc2c(F)cccc2Cl)CC1	i	0.83
COc1ccc(C(=O)Cc2nnc(C)s2)cc1	i	0.43
O=C(CN1CCN(Cc2ccc(Cl)cc2)CC1)N/N=C/C=C/c1ccccc1[N+](=O)[O-]	i	0.45
O=C(Nc1ccc2ccccc2c1)c1ccccc1F	i	1.68
Cc1ccc(S(=O)(=O)N2CCN(C(=O)c3ccc(OCc4c(C)noc4C)cc3)CC2)cc1	i	-1.09
COC(=O)c1c(Sc2ccccc2)c2ccccc2n1C	i	-1.29
CCn1c(SCC(=O)Nc2c(C)n(C)n(-c3ccccc3)c2=O)nc2c1c(=O)n(C)c(=O)n2C	i	-0.19
Cc1ccc(C(=O)NCCNC(=O)c2ccc(C)nc2)cc1	i	0.07
CCc1ccc(C(C(=O)NCc2ccc(OC)cc2)N(CCOC)C(=O)Cc2cccs2)cc1 (stereo not given)	i	0.17
Cn1cc(Cl)c(C(=O)OCC(=O)Nc2nc(-c3ccc(Br)cc3)cs2)n1	i	0.93
COc1ccccc1C(=O)NC(=O)COC(=O)Cc1ccccc1[N+](=O)[O-]	i	1.99
COc1ccc(OCC(=O)O/N=C(\N)Cc2ccc(Cl)cc2Cl)cc1	i	0.9
c1ccc2c(c1)OCC(c1csc3ncnc(N4CCCC4)c13)O2 (stereo not given)	i	0.18
Cc1cc(NC(=O)Nc2cccc(C(F)(F)F)c2)n(C)n1	i	1.71
COc1ccc(C(=O)NN=C2CCCC2)cc1OC	i	-0.68
C=CCn1c(SCC(=O)Nc2ccc(F)cc2F)nnc1-c1cnccn1	i	-0.28
COc1cccc(CN2CCC(N(CCc3ccccc3)Cc3ccccc3)CC2)c1OC	i	-0.4
Cc1ccc(NS(=O)(=O)c2ccc(-c3cnc(C4CC4)o3)cc2)c(C)c1	-5.69*	0.66*
COc1cccc(NC(=O)c2ccc(N3C(=O)C4CC=CCC4C3=O)cc2)c1 (stereo not given)	i	-1.63

Individual results from above.
KCNQ2 inh baseline, COc1ccc(C(=O)Cc2nnc(C)s2)cc1 = 0.43
KCNQ2 inh baseline, COC(=O)c1c(Sc2ccccc2)c2ccccc2n1C = -1.29
KCNQ2 inh baseline, O=C(Nc1ccccc1)NC1CCN(Cc2c(F)cccc2Cl)CC1 = 0.83
KCNQ2 inh baseline, COc1ccc(C(=O)NN=C2CCCC2)cc1OC = -0.68
KCNQ2 inh baseline, c1ccc2c(c1)OCC(c1csc3ncnc(N4CCCC4)c13)O2 (stereo not given) = 0.18
KCNQ2 inh baseline, O=C(CN1CCN(Cc2ccc(Cl)cc2)CC1)N/N=C/C=C/c1ccccc1[N+](=O)[O-] = 0.45

More compounds follow:
SMILES	KCNQ2 inh	KCNQ2 inh baseline
O=C(N/N=C/c1cccc2nccnc12)c1ccccc1O	i	0.11
O=C(CN1CCSC1=NCc1ccccc1)c1ccccc1	i	-0.93
CCOC(=O)Cc1c(C)nc2c(-c3ccc(Cl)cc3)cnn2c1C	i	1.18
CSc1nccc(-c2sc(SC)c(C#N)c2-c2ccccc2)n1	i	1.01
CCCN1C(=O)/C(=C/c2ccc(N3CCOCC3)cc2)NC1=S	i	2.32
S=C1NCCOCCOCCNC(=S)N2CCOCCOCCN1CCOCCOCC2	i	1.28
C[C@@H](C(=O)Nc1ccc2ccccc2c1)[C@@H]1C[C@@]1(C)[C@@H](NC(=O)OCc1ccccc1)c1ccccc1	i	-0.13
COC(=O)c1ccc(NC(=S)Nc2ccc(O)cc2)cc1	i	1.1
COc1ccc(OCC(=O)Nc2ccc3c(c2)nc(CCN2CCN(C)CC2)n3C)cc1	i	1.6
Cc1ccc(-c2n[nH]c(Cc3ccccc3)n2)cc1	i	-0.31
CN(C)c1ccc(/C=N/NC(=O)c2ccccc2Cl)cc1	i	1.23
COc1ccc(C)cc1NC(=O)Cn1cnnn1	i	-0.09
N=c1c(-c2nc3ccccc3[nH]2)cc(C(=O)c2ccco2)nn1-c1ccccc1	i	1.23
CC(NCc1ccc(-c2ccccc2)cc1)C(O)c1ccccc1 (stereo not given)	i	-1.28
CS(=O)(=O)N1CC(C(=O)NN)Oc2ccc(Cl)cc21 (stereo not given)	i	1.38
C/C(N)=C(/C#N)C(=O)COC(=O)CNC(=O)c1ccc(Cl)cc1Cl	i	-0.86
Cc1cc(C)n(C(C)CNS(=O)(=O)c2ccccc2)n1 (stereo not given)	i	0.78
O=C(NCc1cccs1)c1noc2c1CCCC2	i	1.1
COC(=O)CSc1nnc(CNc2ccc(Cl)cc2)n1-c1ccccc1	-5.75*	-0.16*
CCCCC1=CC2=CC(=O)C(C)(OC(=O)CCC(=O)OC)C(=O)C2=CO1 (stereo not given)	i	1.34

Arranged by value in KCNQ2 inh baseline (lowest first): three from the list above
SMILES	KCNQ2 inh	KCNQ2 inh baseline
C/C(N)=C(/C#N)C(=O)COC(=O)CNC(=O)c1ccc(Cl)cc1Cl	i	-0.86
CN(C)c1ccc(/C=N/NC(=O)c2ccccc2Cl)cc1	i	1.23
S=C1NCCOCCOCCNC(=S)N2CCOCCOCCN1CCOCCOCC2	i	1.28

New compounds follow
SMILES	KCNQ2 inh	KCNQ2 inh baseline
Cc1ccccc1-c1nc(SCc2ccccn2)c2c(=O)n(C)c(=O)n(C)c2n1	i	0.54
Cc1ccc(C)c2nc(SCC(=O)N3CCCc4ccccc43)c(C#N)cc12	-7.74*	-0.44*
CCSc1ncc(/C=N/Nc2ccccc2)n1C	i	-0.08
C=CCN(CC=C)C(=S)Nc1ccc(OC)c(OC)c1	i	1.8
O=C(c1ccc2[nH]c3c(c2c1)CCCC3)N1CCN(c2ccc(F)cc2)CC1	i	-1.28
C/C(=N/NC(=O)C(O)(c1ccccc1)c1ccccc1)c1ccc([N+](=O)[O-])o1	i	0.01
C=CCSc1nnc(-c2ccc(Cl)cc2Cl)o1	i	-0.35
O=C(COc1ccccc1F)NC1CC1	i	0.76
CCc1nnc(NC(=O)C2=CCN(S(=O)(=O)c3ccccc3)CC2)s1	i	3.17
O=C(O)C1CC(=O)N(CCc2ccc(F)cc2)C1 (stereo not given)	i	1.85
CC(=O)Nc1ccccc1C(=O)C(=O)Nc1ccc(C(=O)N2CCOCC2)cc1	i	0.06
O=C(COc1cccc2ccccc12)N1c2ccccc2CCc2ccccc21	-7.15*	1.06*
Cc1ccc(C(C)CCN2CCC(n3nccc3NC(=O)c3ccccc3)CC2)o1 (stereo not given)	i	0.85
Clc1ccc2nncn2n1	i	-0.96
Cc1ccc(-n2ncc3c2CCCC3NC(=O)c2cnccn2)cc1C (stereo not given)	i	1.05
COc1ccc(CCN(Cc2ccccn2)C(=S)Nc2cccc(SC)c2)cc1OC	i	-2.96
COc1ccc(CN(CC(=O)NCc2ccccc2)C(=O)c2csnn2)cc1	i	0.02
COc1cc(S(=O)(=O)N(CCc2ccccc2)Cc2cccs2)ccc1-n1cnnn1	i	0.27
CC1Cc2ccccc2N1C(=O)CNc1ccccc1N1CCCCC1 (stereo not given)	-8.36*	-1.46*
Cc1ccc(CCc2nnc(SCC(=O)Nc3ccccc3Cl)n2-c2ccccc2)o1	i	1.05
CCOC(=O)c1cnn(-c2ccccc2)c1NC(=O)c1ccccc1	i	-0.02
NS(=O)(=O)c1ccc2c(c1)C(=NO)c1cc(S(N)(=O)=O)ccc1-2	i	1.67
Cc1ccc(CN=c2c([N+](=O)[O-])nn(-c3cccc(Cl)c3)n2O)cc1	i	-0.71
Cc1nnc(NC(=O)CSc2nccn2Cc2ccc(F)cc2)s1	i	-2.13
COC(=O)c1sc(NC(=O)CSc2nncs2)c(C(=O)OC)c1C	i	-0.53
CCN(CC)S(=O)(=O)c1cccc(NN=c2c(=O)c3ccccc3c2=O)c1	i	0.43
O=C(CSCc1c(F)cccc1Cl)NCCSCc1ccco1	i	-0.58
COc1cc(SC)ccc1C(=O)NCCc1ccccc1	i	-0.02
O=C(CCCn1c(=S)[nH]c2cc3c(cc2c1=O)OCO3)N1CCN(c2ccccc2F)CC1	i	-2.25
COc1ccc(C)cc1S(=O)(=O)n1cnc(C)c1	i	0.03
CCCCCOc1ccc(NC(=O)C(=O)NCC2CCCN2CC)cc1 (stereo not given)	i	1.76
O=C(COCc1cc(-c2ccc3c(c2)OCO3)on1)N1CCN(c2cccc(Cl)c2)CC1	i	-0.38
COc1ccc(/C(O)=C2/C(=O)C(=O)N(CCCN(C)C)C2c2ccccc2)cc1OC (stereo not given)	i	-1.04
COc1ccc(-n2c(C)nc3sc4c(c3c2=O)CCCC4)cc1	i	-3.09
c1ccc(-c2nnc(N3CCOCC3)c3ccccc23)cc1	i	1.08
COc1ccccc1/C=C(/C(=O)OCC(=O)Nc1ccccc1C(C)C)c1ccccc1	i	5.31
COc1ccc(Cl)cc1NC(=O)Nc1ccc(C(=O)N2CCCC2)cc1	i	0.65
Cc1cccc(C)c1NC(=O)CN(C)C(=O)c1ccccc1Cc1ccccc1	i	0.64
Cc1ccc(C(=O)n2cnnc2N)cc1	i	0.05
O=[N+]([O-])c1cccc(N2Cc3ccccc3C2)c1	i	1.35
N#Cc1cc2ccccc2nc1SCC(=O)Nc1ccc(S(=O)(=O)N2CCCC2)cc1	i	0.51
Cc1cccc(C(=O)N(Cc2nc3ccccc3c(=O)[nH]2)C2CCCCC2)c1	i	-0.92
Nc1ccc(S(=O)(=O)NC2=NCCCCC2)cc1	i	0.89
CC1CCc2cc(F)ccc2N1C(=O)CSc1nnc2c(n1)[nH]c1ccc(F)cc12 (stereo not given)	i	-0.01
O=C1c2oc3ccc(F)cc3c(=O)c2C(c2ccccc2)N1CC1CCCO1 (stereo not given)	i	0.25
COc1cc(OC)c(C2C3=C(CCCC3=O)Nc3nc4ccccc4n32)cc1OC (stereo not given)	i	-0.16
Cc1cc(C)n(-c2nnc(NCc3ccc(Cl)cc3)nn2)n1	i	-0.55
Cc1[nH]c2ccccc2c1C(=O)COC(=O)c1c(-c2ccccc2Cl)noc1C	i	-3.69
O=C(NCC1COc2ccccc2O1)C1C2C=CC3(CN(Cc4cccs4)C(=O)C13)O2 (stereo not given)	i	2.32
CCN(CC)CCN1C(=O)C(=O)/C(=C(/O)c2ccc(S(=O)(=O)N3CCOCC3)cc2)C1c1ccccc1 (stereo not given)	i	0.35
COc1cccc(/C=N/NC(=O)CN(CCc2ccccc2)S(=O)(=O)c2ccc(NC(C)=O)cc2)c1	i	0.06
Cc1ccc(-n2c(N)c(C(=O)NCc3ccco3)sc2=S)cc1	i	-0.07
O=C(/C=C/c1ccccn1)c1cc(Cl)cc(Cl)c1O	i	-1.91
COc1ccc2c(c1)c(C(=O)CN1CCCCC1)c(C)n2C	i	-0.27
Cc1cccc(NC(=O)c2nc[nH]c2C(=O)Nc2ccccc2[N+](=O)[O-])c1	i	-0.79
CCOC(=O)c1cc(-c2ccccc2)sc1NC(=O)CN1C(=O)NC(CC)(c2ccccc2)C1=O (stereo not given)	i	0.9
CCOC(=O)c1[nH]c(C)c(C(=O)NCc2ccc(OC)cc2)c1C	i	0.02
O=S(=O)(N/N=C/c1c(F)cccc1Cl)c1ccccc1	i	0.94
O=C(c1ccc(-n2cccc2)cc1)N1CCCCC1	i	-0.81
Cc1ccc(S(=O)(=O)CCC(=O)OCC(=O)N(C)CC(=O)Nc2ccc(F)cc2)cc1	i	-1.35

New compounds follow
SMILES	KCNQ2 inh	KCNQ2 inh baseline
O=C(C1CCC1)N1CCCc2cc(S(=O)(=O)N3CCN(c4ccccc4)CC3)ccc21	i	-0.99
O=C(NCCCn1ccnc1)c1ccc(COc2ccccc2)o1	i	4.45
COc1ccc(Cn2c(O)c(C=Nc3ccc(C)cc3)c3ccccc3c2=O)cc1	i	1.35
CCNC(=S)N/N=C/c1c(Cl)cccc1Cl	i	-0.02
CCC1CN(C(=O)N2CCC(C(=O)NCCc3ccccc3OC)CC2)c2ccccc2O1 (stereo not given)	i	0.23
COc1ccc(NC(=O)CN(C)CC(=O)Nc2ccc(Cl)c(S(=O)(=O)N(C)C)c2)cc1	i	1.38
O=C(COc1ccccc1)Nc1ccc(N2CCN(C(=O)c3cccs3)CC2)cc1	i	-0.06
COC(=O)c1cc(NC(=O)CSc2nncn2C)cc(C(=O)OC)c1	i	1.13
O=C(CSc1ncccn1)NCCC1=CCCCC1	i	1.27
CCn1c(CC(=O)Nc2cccc(OC)c2)nnc1SCC(=O)Nc1nccs1	i	-0.69
Cc1cc(NC(=O)c2coc(=O)c(Br)c2)ccc1C(C)C	i	-0.11
CC(O)CNC12CC3CC(CC(C3)C1)C2 (stereo not given)	i	-1.96
CC(C)(C)c1cc(C(=O)NCc2cc(F)cc3c2OCOC3)n(Cc2ccccc2)n1	i	-0.13
CCOc1ccc(N2C(=O)Cc3ccccc3C2=O)cc1	i	-0.06
Cc1ccc(-n2ncc(Cl)c2C(=O)NCc2ccccc2)cc1	i	-1.48
N=C1/C(=C/c2ccc(-c3cccc(C(=O)O)c3)o2)C(=O)N=C2SC=C(c3ccccc3)N12	i	-0.83
Cc1ccc(S(=O)(=O)NCCC2(C(C)C)CCOC(C)(C)C2)cc1 (stereo not given)	i	-0.03
NC(=O)C1CCCN(C(=O)c2ccc3nc(Cc4cccc(Cl)c4)oc3c2)C1 (stereo not given)	i	-0.92
Cc1cc(C)cc(OCC(=O)Nc2nc(-c3cccnc3)cs2)c1	i	-0.63
O=C(NCc1cccs1)c1ccc(Br)o1	i	1.09

Compounds listed so far that contain a COOH group (two):
SMILES	KCNQ2 inh	KCNQ2 inh baseline
O=C(O)C1CC(=O)N(CCc2ccc(F)cc2)C1 (stereo not given)	i	1.85
N=C1/C(=C/c2ccc(-c3cccc(C(=O)O)c3)o2)C(=O)N=C2SC=C(c3ccccc3)N12	i	-0.83
